# Source: PubChem (several laboratories)
# Calb FLC – affects C. albicans growth with fluconazole | C. albicans CaCi-2 (fluconazole-resistant clinical isolate) + fluconazole, Alamar Blue growth, 48 h | growth inhibition, % (concentration not given with the values) | 300,000 compounds, 0.57% hits;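 active means most replicates above 75%; inconclusive means exactly half above 75%; inactive means most below 75%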;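 further: all wells also contain fluconazole at 8 µg/ml as a sub-toxic cotreatment; 0% = median of DMSO wells and 100% = median of geldanamycin control wells; wells of about 8 µL received 7.5 nL stock; the first replicate is given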
# T cruzi inh – T. cruzi replication inhibition; T. cruzi beta-gal in NIH3T3, luminescence, 90 h; 300,000 compounds, 1.4% hits; AID 1885; inhibition, % (no concentration beside the values);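 active means mean inhibition across valid replicates above about 55%, limit read from the data; inconclusive means mean below that limit but half or more replicates reach it; inactive means mean below it, under half of replicates reach it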;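 further: signal also drops with host cell toxicity which is not excluded here; 0% = plate median of DMSO wells and 100% = zero luminescence signal; higher percent means less beta-gal luminescence so fewer parasites; stock transfer was 50 nL into about 50 µL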
# Beta apoptosis – beta cell apoptosis inhibition; INS-1E cytokine-induced death, ATP luminescence, 48 h; percent of positive-control rescue, neutral wells zero; protection from apoptosis, % (no concentration beside the values); 300,000 compounds, 0.8% hits; AID 435005;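 active means all replicates at 75% or more, or half of them and the mean; inconclusive means half reach 75% but not the mean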;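 further: 0% = cytokine-treated negative control wells and 100% = positive control rescue; higher means more ATP so stronger rescue from cytokine killing; wells of about 40 µL received 100 nL stock; the first replicate is given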
# Bfl-1 A1 inh – inhibitors of the anti-apoptotic protein A1, read as caspase activation. caspase activation, % (test concentration not listed). 330,000 compounds, 0.066% hits. MEF A1-2A-BIM cells, Caspase-Glo 3/7 luminescence, 3 h; percent of clofoctol response, vehicle zero;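 active means over half of replicate activation scores above 10%, or exactly half above 10 with the replicate mean above 10; inconclusive means replicate mean below 10 yet half the replicates above 10; inactive means over half of replicates below 10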;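 further: wells of about 30 µL received 50 nL stock; many hits fall short of the cut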
# AF4-AF9 inh – inhibitors of human MLL-AF4/AF9 interaction; P42568; AlphaScreen, biotin-AF4 peptide binding to FLAG-AF9; inhibition, % at 10 µM; 350,000 compounds, 0.47% hits;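 active means every replicate reaching a set inhibition limit, whatever the replicate mean, cut at about 25% in these data; inconclusive means mean inhibition reaches that limit but some replicates miss it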;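 further: 0% = plate neutral control median and 100% = total signal loss; the record names both 10 and 1 µM as test concentration; the first replicate is given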
# Target sequence (P42568 whole entry, looked up): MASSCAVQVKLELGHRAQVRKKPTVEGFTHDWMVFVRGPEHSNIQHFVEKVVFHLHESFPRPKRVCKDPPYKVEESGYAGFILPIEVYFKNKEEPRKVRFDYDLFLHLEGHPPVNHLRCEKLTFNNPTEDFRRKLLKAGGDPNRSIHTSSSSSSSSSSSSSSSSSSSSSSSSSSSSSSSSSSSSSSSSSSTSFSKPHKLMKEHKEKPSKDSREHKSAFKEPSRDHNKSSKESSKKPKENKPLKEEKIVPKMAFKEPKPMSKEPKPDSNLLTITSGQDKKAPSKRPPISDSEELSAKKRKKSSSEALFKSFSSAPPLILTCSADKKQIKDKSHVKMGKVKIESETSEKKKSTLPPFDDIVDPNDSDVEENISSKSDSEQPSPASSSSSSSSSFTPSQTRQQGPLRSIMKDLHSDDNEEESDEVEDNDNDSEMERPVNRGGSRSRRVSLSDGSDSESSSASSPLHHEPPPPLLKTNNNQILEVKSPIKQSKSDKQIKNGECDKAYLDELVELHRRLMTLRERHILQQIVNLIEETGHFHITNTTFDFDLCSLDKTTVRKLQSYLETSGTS
# RanGTP-Impb inh – disruptors of Ran-importin-beta complex formation – biochemical, FRET, CFP-Ran, YFP-importin-beta, homogeneous, primary screen. 300,000 compounds, 1.1% hits. AID 2216. inhibition, % (test concentration not listed). cell-free CFP-Ran/YFP-importin-beta FRET ratio;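 active means most replicates above 15%; inconclusive means exactly half above 15%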;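 further: 0% = DMSO wells and 100% = Ran loaded with GDP instead of GTP; wells of about 40 µL received 100 nL stock; the first replicate is given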
# Ecoli rRNA inh – inhibitors of bacterial rRNA selective over humanized ribosomes; E. coli WT GFP vs humanized-ribosome RFP mutants, fluorescence, 24 h; stronger effect = lower value; DMSO median 0, no signal -100; GFP signal change (wild-type ribosome), % (test concentration not listed); 350,000 compounds, 1.6% hits; AID 720706;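 active means significant combined selectivity score with lowered wild-type GFP, culture density cut under 30%, mutant RFP and density less affected; inactive means any of these conditions unmet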; further: one replicate is shown; some compounds called inactive have numbers as strong as hits
# Vif A3G – HIV-1 Vif–A3G interaction blockers – biochemical, TR-FRET, GST-Vif 1-94, biotin-A3G peptide, dose response retest, primary screen (AID 1117319); TR-FRET GST-Vif / biotin-A3G peptide binding; higher % means a stronger effect; test concentration not given here; strong numbers were not always called active; inhibition, %, or IC50 in µM where a hit was titrated; 260,000 compounds, 0.57% hits;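 active means above the screen mean plus three standard deviations and confirmed in dose response; inconclusive means results disagree or hit not tested in dose response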;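 further: Vif residues 1-94 fused to GST binding biotinylated APOBEC3G peptide 110-148; 0% = full assay without inhibitor and 100% = GST in place of GST-Vif; retest series ran down from 100 µM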
# Ecoli rRNA inh OD600 – second read-out of Ecoli rRNA inh, no call of its own (marks repeat the call); OD600 change, %; measured here: OD600 growth;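 optical density of the mix in the first replicate; 0 = DMSO median and -100 = no signal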
# Ecoli rRNA inh RFP – further read-out of Ecoli rRNA inh, marked with its call; RFP signal change, %; measured here: RFP humanized mutant strains;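 first replicate; 0 = DMSO median and -100 = no signal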
# * hit, by the source's call; ? = inconclusive; · = not tested or not shown; & = joins results of further samples.
SMILES,Calb FLC,T cruzi inh,Beta apoptosis,Bfl-1 A1 inh,AF4-AF9 inh,RanGTP-Impb inh,Ecoli rRNA inh,Ecoli rRNA inh OD600,Ecoli rRNA inh RFP,Vif A3G
Cc1ncc(CO)c(/C=N/NC(=S)Nc2ccc(Cl)c(Cl)c2)c1O,110*,8,42,-0.4,30*,4.5,-54,-77,-18,2%
[2H]c1c([2H])c([2H])c(-c2nc(N3CCCCCC3)sc2C(=O)c2ccccc2)c([2H])c1[2H],2,16,12,-0.4,·,0.5,·,·,·,-10%
COc1cc(OC)cc(/C(N)=N/O)c1,2,-12,-5,0.0,-1.8,-3.2,7,10,-2.8,3%
Cc1ccc2nc(SCC(=O)N(CC(C)C)c3c(N)n(CC(C)C)c(=O)[nH]c3=O)[nH]c2c1,-10,3,0,1.6,·,-2.3,·,·,·,5%&70%
Cc1cccc(CCNC(=O)C2CCN(S(=O)(=O)c3ccccc3)CC2)c1,5,0,-7,-0.2,0.5,0.2,-2,0,-0.2,·
COc1ccc(N(CC(=O)Nc2ccc(OC)c(Cl)c2)S(=O)(=O)c2c(C)noc2C)cc1,-4,33,15,-0.5,·,0.5,·,·,·,-2%
COc1ccc(OC)c(NC(=O)COC(=O)c2n[nH]c3ccccc23)c1,·,·,-4,-1.8,-0.1,·,-32,-60,-14,-1%
S=c1nc(NCc2cccc(Cl)c2)c2ccccc2[nH]1,14,-16,·,-0.4,0.2,3.5,-10,-18,-10,-5%
CCCCN(C1CCS(=O)(=O)C1)S(=O)(=O)c1ccc(C(C)C)cc1 (centres undefined),-10,8,1,-0.5,0.0,0.4,7,8,-0.4,-1%
COc1ccc(S(=O)(=O)N2CCCCC2)cc1NC(=O)CNc1ccccc1N1CCCC1=O,·,·,-2,-0.2,2.0,·,-3,2,1.2,·
CCOc1ccc(NC(=O)CSc2nnc(CNC(=O)c3cccs3)o2)cc1,-2,-15,2,0.1,-2.1,2.9,0,0,-0.1,·
O=C(NC1CCCCC1)C(c1ccco1)N(C(=O)C(F)(F)F)C1CC1 (centres undefined),0,-10,0,1.1,·,-1.2,·,·,·,9%
CSCC[C@H](NC(=O)N1CCn2c1nc1ccccc12)C(=O)NCc1ccc(C)cc1,3,18,-7,1.0,-0.7,1.7,-7,0,2.3,33%
CCCC(=O)N1CCN(Cc2ccc3c(c2)OCO3)CC1,-1,-6,-1,0.3,·,-1.3,·,·,·,0%
CC(C)c1ccc(NC(=O)CCCN2C(=O)NC(C)(C)C2=O)cc1,·,·,-2,-0.7,0.5,·,4,10,-2.2,?
CCOc1cc(N2CCOCC2)c(OCC)cc1NC(=O)COC(=O)c1ccc(Cl)nc1,·,·,-12,0.1,0.1,·,11,12,4.9,3%
COc1ccccc1CN(C)C(=O)COC(=O)c1c(C)noc1C,·,·,-2,0.6,-1.1,·,-4,-4,-1.9,1%
O=C1CCCc2nc(N3CCc4ccccc43)ncc21,7,-3,-6,-9.0,·,·,·,·,·,-7%
Cc1c(C(=O)N2CCNCC2)oc2ccccc12,5,-10,-11,0.6,-0.2,?,12,11,-0.5,-3%
Cc1ccc(CNC(=O)C(Cc2ccccc2)NS(=O)(=O)c2cccs2)cc1 (centres undefined),-27,0,·,-0.3,·,-3.8,-16,-18,4.2,13%
CCOC(=O)c1nc(-c2ccc3c(c2)OCO3)[nH]c1C,5,-10,8,-6.5,-5.4,4.3,-2,3,-2.0,25%
COc1ccccc1C1/C(=C(/O)c2ccc(OC(C)C)cc2)C(=O)C(=O)N1c1cc(C)on1 (centres undefined),1,-7,2,0.4,·,0.5,·,·,·,-6%
N#Cc1ccccc1OCC(=O)NC(=O)NC1CCS(=O)(=O)C1 (centres undefined),·,·,-2,-0.2,-0.1,·,22,15,-1.0,-8%
Cc1ccc(OCCSc2nc(NC(C)C)nc(NC(C)C)n2)cc1,-6,34,39,0.2,0.5,1.5,-1,-6,-10,-9%
O=C(COC(=O)C12CC3CC(CC(O)(C3)C1)C2)Nc1ccccc1OC(F)F,-26,-6,-9,0.1,·,1.0,·,·,·,0%
O=S(=O)(Nc1nc2ccccc2nc1Cl)c1ccc(Cl)cc1,1,-13,-3,-0.5,·,-4.7,·,·,·,3%
C#CCOC(=O)c1csc2nnsc12,5,-12,1,1.0,·,3.3,6,4,1.4,-1%
CC1=C(C(N)=O)C(c2ccccc2F)NC(=O)N1 (centres undefined),-7,-12,-2,-1.9,·,-3.1,·,·,·,3%
COc1cc(OC)cc(-c2c(-c3cccs3)c3cc(-c4cc(OC)c(OC)c(OC)c4)ccc3n2C)c1,·,·,-2,-1.5,6.3,·,9,0,2.1,·
Cc1nc2c(C)cccn2c1/C(O)=C1\C(=O)C(=O)N(CCN(C)C)C1c1ccccc1 (centres undefined),1,0,4,0.4,·,-2.9,-2,-4,-1.2,15%
O=C(NNS(=O)(=O)c1ccc2ccccc2c1)c1cccnc1,-2,0,-6,-0.3,·,-1.2,·,·,·,-5%
CCCn1nc2cc(C(=O)NCc3ccc(C)cc3)ccc2c1OC,-2,-18,-5,-0.7,2.2,2.6,6,8,1.7,-2%
CCOC(=O)CNC(=O)CSc1ccc(-c2nc3ccccc3[nH]2)cn1,1,-5,5,0.9,1.7,-2.2,-14,-10,3.7,-9%
CCc1cc2c(N[C@@H](C)C(=O)O)ncnc2s1,-9,2,4,0.6,·,4.0,·,·,·,2%
O=C(CN1C(=O)c2ccccc2C1=O)NCC(=O)OCC(=O)c1ccc(Br)cc1,-6,-8,-5,1.6,·,-1.4,·,·,·,0%
COc1ccc(CN(Cc2cccn2C)S(=O)(=O)c2ccccc2)cc1,-1,28,·,0.6,-0.6,5.0,-7,-11,4.7,2%

# Pulled by structure from above (four):
SMILES,Calb FLC,T cruzi inh,Beta apoptosis,Bfl-1 A1 inh,AF4-AF9 inh,RanGTP-Impb inh,Ecoli rRNA inh,Ecoli rRNA inh OD600,Ecoli rRNA inh RFP,Vif A3G
O=C(COC(=O)C12CC3CC(CC(O)(C3)C1)C2)Nc1ccccc1OC(F)F,-26,-6,-9,0.1,·,1.0,·,·,·,0%
Cc1ccc2nc(SCC(=O)N(CC(C)C)c3c(N)n(CC(C)C)c(=O)[nH]c3=O)[nH]c2c1,-10,3,0,1.6,·,-2.3,·,·,·,5%&70%
CCCC(=O)N1CCN(Cc2ccc3c(c2)OCO3)CC1,-1,-6,-1,0.3,·,-1.3,·,·,·,0%
S=c1nc(NCc2cccc(Cl)c2)c2ccccc2[nH]1,14,-16,·,-0.4,0.2,3.5,-10,-18,-10,-5%

# Next section.
SMILES,Calb FLC,T cruzi inh,Beta apoptosis,Bfl-1 A1 inh,AF4-AF9 inh,RanGTP-Impb inh,Ecoli rRNA inh,Ecoli rRNA inh OD600,Ecoli rRNA inh RFP,Vif A3G
N#C/C(=C\c1ccccc1[N+](=O)[O-])c1nc(C2CC2)cs1,0,10,-11,0.2,·,-0.9,·,·,·,-2%
COc1cccc(CC(=O)Nc2ccccc2N2CCCC2)c1,-5,11,0,-0.3,7.2,0.7,-4,-3,-1.3,-2%
CC(C)c1ccc(C(C)NC(=S)NC2CCCCC2)cc1 (centres undefined),-27,27,17,0.0,-0.5,-0.9,-41,-72,-5.5,7%
CCCCOc1ccc2ccccc2c1C=O,-2,3,-2,0.0,·,1.1,·,·,·,9%
COc1ccccc1NC(=O)C1CCN(S(=O)(=O)c2ccc3c(c2)NC(=O)CO3)CC1,-2,-3,-2,-1.7,-2.3,-2.9,4,8,2.0,8%
COc1ccccc1NS(=O)(=O)c1ccc(C)c(C(=O)N2CCCC2)c1,·,·,1,1.7,-5.8,·,13,9,8.3,·
CCNC(=O)COc1ccc(OCc2ccccc2)cc1,-1,-7,-2,-3.8,2.2,-1.2,-2,10,1.1,·
CC(=O)Nc1ccc(S(=O)(=O)N(C)CC(=O)N/N=C/c2ccc(C(=O)O)cc2)cc1,0,-8,-5,0.9,-7.5,10,10,11,-0.5,·
Cc1c(Cl)cccc1NC(=O)CCC(=O)N/N=C/c1ccc[nH]1,7,-2,-4,0.4,7.8,3.2,8,16,5.6,·
COc1cccc(-n2c(Cc3cc(=O)[nH]c(=O)[nH]3)nnc2SCC(=O)Nc2ccccc2)c1,·,·,-5,0.6,-0.8,·,4,1,-1.6,5%
Cc1cc(Br)ccc1NC(=O)CN(C)C(=O)c1ccc2ccccc2n1,·,·,8,-1.3,4.1,·,-6,-12,-0.4,-4%
O=C(Cc1ccc(Cl)c(Cl)c1)NNC(=S)NCC1CCCO1 (centres undefined),3,-2,0,-0.4,0.1,4.5,-4,-13,-0.5,·

# AF4-AF9 inh, what is marked active above.
canonical_smiles	AF4-AF9 inh	RanGTP-Impb inh	Ecoli rRNA inh	Ecoli rRNA inh OD600	Ecoli rRNA inh RFP	Vif A3G
Cc1ncc(CO)c(/C=N/NC(=S)Nc2ccc(Cl)c(Cl)c2)c1O	30*	4.5	-54	-77	-18	2%

# (next part)
SMILES,Calb FLC,T cruzi inh,Beta apoptosis,Bfl-1 A1 inh,AF4-AF9 inh,RanGTP-Impb inh,Ecoli rRNA inh,Ecoli rRNA inh OD600,Ecoli rRNA inh RFP,Vif A3G
CC(C)(C)C(=O)Oc1cccc(Nc2ncnc3ccccc23)c1,16,-2,5,0.0,2.5,1.9,-15,-25,0.1,·
O=C(CNC(c1ccccc1)c1ccccc1)Nc1ccc(F)cc1,1,9,1,0.5,·,3.3,·,·,·,·
Cn1ncc2c(c(SCc3ccc(Cl)cc3Cl)nn2C)c1=O,-4,46,3,-0.5,1.4,1.4,·,·,·,-13%
S=C(Nc1ccccc1)Nc1ccccc1-n1cccc1,-3,-19,·,·,-5.0,2.4,·,·,·,26%
CCOC(=O)Cc1csc(N(C)C)n1,0,-2,2,0.4,0.2,-3.2,13,14,4.3,-3%
Cc1cc(C)cc(N(C(=O)CNS(=O)(=O)c2ccccc2)C(C(=O)NCc2ccccc2)c2ccc(C)o2)c1 (centres undefined),14,43,11,0.3,-19,2.1,5,18,3.3,·
O=C(Cc1ccccc1)NNC(=O)Cc1ccccc1,3,-14,·,0.0,3.3,1.4,2,8,-1.8,0%

# An excerpt. The share of hits here may be higher or lower than overall.
